Bioassay records: PubChem BioAssay, National Center for Advancing Translational Sciences (NCATS)
VDR inhibitor – blocks the human vitamin D receptor; AID 504847; VDR-SRC2-3 peptide fluorescence polarization, 2 h; P11473; Potency, µM, without a hit: max response, negative = inhibition, actives largely listed as inhibitors; 400,000 compounds, 0.93% hits; active = well fitted inhibition curve with a large enough effect; inconclusive = small, poorly fitted or top-dose-only effect, or another doubt; inactive = no such curve, though single readings can be large or run the other way; note: series mostly up to about 120 µM
Target sequence (P11473 whole entry, looked up): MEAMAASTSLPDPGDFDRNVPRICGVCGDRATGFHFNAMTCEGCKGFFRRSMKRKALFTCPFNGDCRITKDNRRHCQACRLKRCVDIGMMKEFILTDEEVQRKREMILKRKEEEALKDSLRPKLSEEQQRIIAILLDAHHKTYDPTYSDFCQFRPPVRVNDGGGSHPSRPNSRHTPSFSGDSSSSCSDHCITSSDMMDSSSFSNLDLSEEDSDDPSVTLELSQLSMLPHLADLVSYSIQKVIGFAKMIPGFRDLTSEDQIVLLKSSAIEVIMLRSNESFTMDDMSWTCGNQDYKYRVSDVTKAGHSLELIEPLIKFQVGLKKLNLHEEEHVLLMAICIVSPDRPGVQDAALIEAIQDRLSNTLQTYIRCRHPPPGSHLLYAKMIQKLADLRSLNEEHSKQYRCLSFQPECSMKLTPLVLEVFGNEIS
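Measured by FP: displacement of SRC2-3 coactivator peptide from VDR by library compounds, following a two-hour ambient incubation.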
* hit, by the source's call; ? = inconclusive. % is set by controls: 0 for no effect and ±100 for the full control effect; potency is the fitted concentration of half-maximal effect. Some of the compounds tested. The share of hits here may be higher or lower than overall.

SMILES	VDR inhibitor
COC(=O)CNC(=O)c1ccc(=O)oc1	-3.9%
COc1cc(/C=N/NC(=O)CCn2c3ccccc3c3ccccc32)ccc1O	-13.3%
CN(CC(=O)Nc1ccc(Cl)c(C(F)(F)F)c1)C(=O)c1ccc(N2CCOCC2)c([N+](=O)[O-])c1	-6.5%
O=C1N=C(N2CCOCC2)S/C1=C\C=C/c1ccccc1	7.5%
O=C(COC(=O)c1cc[n+]([O-])cc1)Nc1cccc(Cl)c1Cl	-2.4%
N#Cc1cn(CC(=O)NCc2cccnc2)c2ccccc12	5.0%
C/C=C/C(=O)OCC(=O)NC(=O)NC(C)C	-11.4%
COc1ccccc1OCCSc1nnnn1C1CCCCC1	9.4%
Cc1ccccc1NC(=O)Nc1ccc2nc(N3CCN(C)CC3)cc(C)c2c1	9.4%
CC(Oc1ccc2ccc(=O)oc2c1)C(=O)NCCN1CCOCC1 (centres undefined)	11.3%
CC[C@]12c3[nH]c4cc(-c5ccco5)ccc4c3CCN1C(=O)[C@@H](CC(=O)NCCCN(C)C)C[C@@H]2C(=O)N1CCN(C(=O)c2ccco2)CC1	-13.7%
Cc1ccc(OCCNC(=O)CCc2nc3sc4c(c3c(=O)[nH]2)CCCC4)cc1	26.0%
CCOC(=O)c1c(C)[nH]c(C)c1S(=O)(=O)N1CCN(c2cccc(C)c2)C(C)C1 (centres undefined)	-25.8%
COc1ccc(CCNC(=O)CSc2nn(-c3ccccc3)c(=S)s2)cc1	-3.6%
CC(C)C(=O)Nc1ccc2nn(-c3ccc(F)cc3)nc2c1	-12.4%
CC1Cc2ccccc2N1C(=O)C1CCCN1S(=O)(=O)c1ccc(Cl)cc1 (centres undefined)	-14.0%
CC(=O)c1ccc(-c2ccc(C(=O)N(C)c3c(N)n(Cc4ccccc4)c(=O)[nH]c3=O)o2)cc1	-6.6%
CCNC(=O)N1CCN(C(=O)NCC)CC1	4.0%
COc1ccccc1C(=O)Nc1ccc2nc(SCCOc3ccccc3C)sc2c1	2.6%
COc1cccc(CC(=O)Nc2ccc3c(c2)CCC3)c1	2.7%
CC[C@@H](C)C(NC(=O)OC(C)(C)C)c1cn([C@@H](Cc2ccc(O)cc2)C(=O)N2CCN(C(=O)OC(C)(C)C)CC2)nn1 (some centres undefined)	-5.9%
O=C(Nc1nc2ccccc2s1)c1ccc(OCC2CCCO2)cc1 (centres undefined)	-9.2%
O=C(CCC(=O)N/N=C/c1cc(Cl)cc(Cl)c1O)NCc1ccccc1	?
COc1ccccc1NC(=O)CSc1nnc(-c2cccc(Cl)c2)o1	4.2%
COc1ccc(S(=O)(=O)NCc2ccco2)cc1C(=O)N1CCOCC1	-22.8%
O=C(COc1ccc2ccccc2c1)Nc1nccs1	-16.5%
Cc1ccc(S(=O)(=O)N(C)C[C@H]2Oc3c(NC(=O)Nc4cccc5ccccc45)cccc3C(=O)N([C@@H](C)CO)C[C@@H]2C)cc1	1.5%
COc1ccc(/C=N/n2c(-c3cccs3)n[nH]c2=S)cc1	-12.1%
NCCCCCC(=O)N/N=C/c1ccc2nccnc2c1	-3.2%
O=C(Nc1nccs1)c1nc[nH]c1C(=O)NCc1ccccc1	-7.9%
CC1CC(=O)C2=C(C1)OC(N)=C(C#N)C2c1coc2ccccc2c1=O (centres undefined)	4.3%
Cc1cc(Cl)ccc1OCc1n[nH]c(=S)n1C1CCCCC1	7.7%
CSCCC(NS(=O)(=O)/C=C/c1ccccc1)C(=O)N1CCC(C)CC1 (centres undefined)	-21.0%
CC1CCCCC12NC(=O)N(CC(=O)N1CCc3ccccc3C1)C2=O (centres undefined)	-1.6%
CCOCCn1ccc2c(OCC(=O)Nc3ccc(OC(F)(F)F)cc3)cccc2c1=O	15.0%
CCOC(=O)N1CCN(C(=O)c2n[nH]c(=O)c3ccccc23)CC1	-17.6%
Cc1ccc(S(=O)(=O)N2CC(O)CC2C(=O)OCc2nc3sc(C)c(C)c3c(=O)[nH]2)cc1 (centres undefined)	9.3%
CC(=O)NC1CC(C)(C)N(OC(C)=O)C(C)(C)C1	-3.7%
CC1CCN(S(=O)(=O)c2cccc(-c3csc(-c4cccnc4)n3)c2)CC1	22.0%
O=C(CSc1nc2c(c(=O)n1-c1ccccc1)SCC2)N1CCN(c2ccccc2)CC1	-7.4%

An excerpt from above in order of their number in VDR inhibitor, low to high.
molecule	VDR inhibitor
CCOC(=O)c1c(C)[nH]c(C)c1S(=O)(=O)N1CCN(c2cccc(C)c2)C(C)C1 (centres undefined)	-25.8%
CSCCC(NS(=O)(=O)/C=C/c1ccccc1)C(=O)N1CCC(C)CC1 (centres undefined)	-21.0%
COC(=O)CNC(=O)c1ccc(=O)oc1	-3.9%
CC1CCCCC12NC(=O)N(CC(=O)N1CCc3ccccc3C1)C2=O (centres undefined)	-1.6%
CCOCCn1ccc2c(OCC(=O)Nc3ccc(OC(F)(F)F)cc3)cccc2c1=O	15.0%

(further entries)
SMILES	VDR inhibitor
COc1ccc(Cl)cc1NC(=O)NC1CCCCC1	?
CCCNC(=O)CSc1nc2[nH]ncc2c(=O)[nH]1	-14.2%
O=C(NN=C1c2ccccc2-c2ccccc21)c1cccc(Br)c1	-16.7%
CC1CN(c2ccnc3cc(Cl)ccc23)CC(C)O1 (centres undefined)	-2.8%
CCOC(=O)/C(=C\c1c[nH]c2ccccc12)NC(C)=O	?
CCOC(=O)c1[nH]cnc1C(=O)Nc1cccc(N)n1	-17.3%
Cc1cccc(-n2ccc(=O)c(C(=O)Nc3ccc(S(=O)(=O)N4CCOCC4)cc3)n2)c1	0.0%
COC(=O)C1=C(C)NC(=S)NC1c1ccc(-c2cccc(Cl)c2)o1 (centres undefined)	6.8%
Cn1cccc1/C=N/NC(=O)c1cccs1	18.7%
Cc1ccc(NC(=O)c2oc3ccccc3c2NC(=O)Cc2cccs2)cc1	-1.6%
CC(=O)Nc1ccc(Nc2cc(-c3ccccc3)nc3ncnn23)cc1	18.8%
Cc1ccc(NC(=O)Cn2nnc(C(=O)NCc3ccccc3)c2N)cc1C	6.6%
O=C(Nc1ccc(N2CCOCC2)cc1)c1nc2ccccc2s1	16.9%
Cc1ccc(N(C)S(=O)(=O)c2cccc(C(=O)OCC(=O)N3CCCC(C)C3)c2)cc1 (centres undefined)	1.2%
NC(=O)N/N=C\c1cccs1	6.0%
O=C(/C=C/c1cccs1)c1ccc(NC(=O)c2cccc(Br)c2)cc1	-6.0%
Cc1ccc2nc(-c3ccc(NC(=O)CN4C(=O)c5ccccc5C4=O)cc3)sc2c1	-3.9%
CC(C)NC(=O)COC(=O)c1ccc(Oc2ccccc2)cc1	5.0%
Cc1ccc(C)c(N2CCN(S(=O)(=O)c3ccc4c(c3)C(C)(C)C(=O)N4C)CC2)c1	-16.9%
Cc1ccc(C)c(N(C)S(=O)(=O)c2ccc3c(c2)oc(=O)n3C)c1	-4.4%

Single values from above:
CC1CN(c2ccnc3cc(Cl)ccc23)CC(C)O1 (centres undefined) in VDR inhibitor = -2.8%
CC(=O)Nc1ccc(Nc2cc(-c3ccccc3)nc3ncnn23)cc1 in VDR inhibitor = 18.8%

Next results
SMILES	VDR inhibitor
COCCNc1nnc(SCC(=O)c2ccc3c(c2)OCO3)s1	-11.1%
CC(C)OCC(O)CN1CCC(Cc2ccccc2)CC1 (centres undefined)	-2.5%
Cc1nnc(SCC(=O)Nc2nnc(SCc3cccc(Br)c3)s2)s1	-25.7%
CC(=O)c1cccc(NC(=O)c2cc(-c3ccncc3)nc3ccccc23)c1	7.8%
CC(=CC(=O)c1ccccc1)c1ccccc1	5.1%
COCCCNC(=O)Cn1c(=O)n(-c2ccc(C)cc2)c(=O)c2c1c1cc(C)ccc1n2C	-3.0%
N=C1/C(=C/c2ccc(OC(=O)c3ccco3)cc2)C(=O)N=C2SC=CN12	-1.5%
O=C1OC[C@@H]2CCCN2C(=O)[C@@H](CC(=O)N(CCO)Cc2ccccc2)C/C=C\CC[C@H]1Cc1ccc(F)cc1	8.1%
COc1ccc(CNC(=O)c2cc(-c3cc(C)cc(C)c3O)n[nH]2)cc1	-10.3%
CCOc1ccc(CCNC(=O)Cc2nn[nH]n2)cc1OCC	-1.1%
Cc1c(/C=N/Nc2ccc(F)cc2)c(O)n(C)c(=O)c1C#N	-15.4%
CC(C)(C)c1ccc2c(c1)OC(C(=O)N/N=C\c1ccncc1)CO2 (centres undefined)	-2.5%
O=C1/C(=N\O)Cc2ccccc21	4.6%
CC1CCCC(C)N1C(=O)COC(=O)c1cc(F)c(F)cc1Cl (centres undefined)	-13.1%
COCCn1c(C)cc(C(=O)CSc2nnc(C3CC3)n2C2CC2)c1C	-5.7%
O=C(NCc1ccccc1)C1=C[C@@H](c2coc3ccccc3c2=O)C[C@@H](OCc2ccc(CO)cc2)O1	-1.5%
Cn1c2c(c3ccccc31)CCSC2=O	8.7%
COC(=O)c1c(C)oc2cc(Br)c(OCC(=O)C(C)(C)C)cc12	5.2%
O=C(CN1C(=O)c2ccccc2C1=O)N1CCCCC1	0.4%
Cc1ccc(NC(=O)CSc2nnc(C)c(=O)n2N)c(C)c1	-7.3%

A different layout for 6 compounds above.
canonical_smiles | VDR inhibitor
O=C1/C(=N\O)Cc2ccccc21 | 4.6%
CC1CCCC(C)N1C(=O)COC(=O)c1cc(F)c(F)cc1Cl (centres undefined) | -13.1%
COCCn1c(C)cc(C(=O)CSc2nnc(C3CC3)n2C2CC2)c1C | -5.7%
O=C(NCc1ccccc1)C1=C[C@@H](c2coc3ccccc3c2=O)C[C@@H](OCc2ccc(CO)cc2)O1 | -1.5%
Cn1c2c(c3ccccc31)CCSC2=O | 8.7%
COC(=O)c1c(C)oc2cc(Br)c(OCC(=O)C(C)(C)C)cc12 | 5.2%

Carrying on:
SMILES	VDR inhibitor
CN(C(=O)c1ccc(NC(=O)Cc2cccc(NC(=O)C3CCN(C(=O)C4CC4)CC3)c2)cc1)C1CCCC1	-11.9%
Cc1ccc(S(=O)(=O)N(C)CC(=O)Nc2ccccc2N2CCCC2)cc1	11.2%
COc1ccc(OC)c(C(=O)CCCC(=O)c2cc(OC)ccc2OC)c1	?
CCc1nn(CC(=O)N2CCN(CC)CC2)c(=O)c2cccn12	-9.0%
COc1cccc(N2CCN(CC(=O)NCc3cccs3)CC2)c1	-0.6%
COc1nc(NCCO)nc(Nc2ccccc2F)n1	2.8%
CCN(CC)S(=O)(=O)c1ccc(Cl)c(C(=O)Nc2cccnc2)c1	6.3%
Cc1ccc(S(=O)(=O)N2CCN(c3ccnc4cc(Cl)ccc34)CC2)cc1	-2.3%
CCOc1ccc2c(c1)nc(NCCCO)n2Cc1ccccc1	16.8%
CC(C)Cc1ccc(C(C)C(=O)Nc2cccnc2)cc1 (centres undefined)	-2.1%
CCOC(=O)c1c(CC(C)C)csc1NC(=O)C(C)C	2.3%
O=C(CN1CCN(C(=O)c2cccc(-n3cnnn3)c2)CC1)Nc1ccccc1Cl	-4.2%
Cn1c(=O)cc(N2CCN(C(=O)c3ccco3)CC2)[nH]c1=O	-21.2%
O=C(Nc1nnc(-c2cccs2)s1)c1cccc(F)c1	-6.3%
O=C(Oc1ccc(-c2nnco2)cc1)c1ccc(F)c(S(=O)(=O)N2CCOCC2)c1	-7.0%
Cc1ccc(-c2nnc(NCc3ccccc3)c3ccccc23)cc1	19.0%
Cc1cc(NC(=O)CN2C(=O)NC3(CCCCC3)C2=O)no1	0.1%
CCn1cc(C(=O)NCc2cccs2)c(=O)c2cc(S(=O)(=O)N3CCOCC3)ccc21	-16.2%
O=C(Nc1ccc(Cl)cn1)c1ccc2c(c1)OCCO2	-3.5%
Cc1cc2c(cc(C(=O)OC(C(=O)NC3CCCCC3)C(C)C)n2C)o1 (centres undefined)	-3.4%
CC(Sc1ccccn1)C(=O)NC1CCCC1 (centres undefined)	3.5%
O=C(COC(=O)c1cnccn1)Nc1ccc(Cl)cn1	-8.3%
Cc1cccc(C)c1NC(=O)CNC(=O)c1ccc(COc2ccccc2)o1	-11.1%
O=c1c2c3nc4ccccc4nc3n(Cc3ccccc3)c2ncn1Cc1ccco1	-13.4%
CCOc1ccccc1CN1CCC(N2CCC(C(=O)NC3CC3)CC2)CC1	-14.2%
CCOC(=O)N1CCN(S(=O)(=O)c2ccc3c(c2)CCN3C(=O)CC)CC1	-12.7%
Cc1ccc(Nc2nc(C(=O)N3CCC(C(=O)NC(C)C)CC3)cs2)cc1	-1.1%
CC(=O)c1ccccc1OCC(O)CN1CCN(c2ccccn2)CC1 (centres undefined)	-11.0%
COc1c(OC(C)=O)ccc(/C=C/c2ccc3ccccc3n2)c1[N+](=O)[O-]	-0.2%
Cc1ccc(-c2c(=O)n(O)c3ccccc3[n+]2[O-])cc1	-13.7%
CN1C[C@@H]2C[C@H]1CN2c1cc2c(cc1F)c(=O)c(C(=O)O)cn2C1CC1	-0.5%
COc1ccc2[nH]c3c(c2c1)CCN1C(=O)C(CC(=O)NCc2ccco2)C[C@H](C(=O)N2CCOCC2)[C@@]31C (some centres undefined)	-12.4%
CCN1CCCC1CNC(=O)c1cc(COc2ccc(C)c(C)c2)on1 (centres undefined)	-16.0%
O=C(Cn1c(=O)n(-c2ccc(F)cc2)c(=O)c2sc3ccccc3c21)NC1CCCCC1	-11.2%
CCOC(=O)c1sc(NC(=O)CSc2nnc(C(C)C)n2CC)nc1C	-3.9%
CCCCCCCCOC(=O)c1cc([N+](=O)[O-])c(Sc2ncnc3nc[nH]c23)c([N+](=O)[O-])c1	?
CC1CN(C(=O)CCC(=O)N2CCCCC2)c2cc(Cl)ccc2O1 (centres undefined)	-12.5%
Cc1cc(C)n(CCc2nc(-c3ccc(C)o3)cs2)n1	?
CCCNC(=O)C1CC(=O)N(c2ccc(OCC(=O)Nc3cccc(C)c3C)cc2)C1 (centres undefined)	-12.9%
CCOc1cc(S(=O)(=O)n2cc(-c3ccc(F)cc3)c(N)n2)cc(OCC)c1OCC	11.3%
